Screens as filed in PubChem BioAssay.
ALR inh: human ALR oxidase inhibition via reduced H2O2 | inhibition, % (test concentration not listed) | AID 485317 | purified ALR, DTT oxidation, H2O2 HRP-luminol luminescence | P55789 | actives 3.8% (n = 290,000);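 active = mean and each replicate at 75% or more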;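 also: stock transfer was 7.5 nL into about 7.5 µL; 0% = neutral wells and 100% = wells with inactivated enzyme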
Target sequence (P55789 whole entry, looked up): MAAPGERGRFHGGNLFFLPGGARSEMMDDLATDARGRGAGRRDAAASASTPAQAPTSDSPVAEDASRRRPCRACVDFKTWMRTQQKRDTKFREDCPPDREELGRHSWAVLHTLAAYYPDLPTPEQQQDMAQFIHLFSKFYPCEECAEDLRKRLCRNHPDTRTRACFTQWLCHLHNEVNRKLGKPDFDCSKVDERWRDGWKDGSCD
B2AR ag: activates human beta-2 adrenergic receptor causing internalization. actives 0.43% (n = 340,000). Am2.2-beta2AR cells, FAP receptor internalization, flow cytometry; reference of the scale not given here. response, % (no concentration beside the values). P07550. AID 504454;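 active = response above a set limit, near 3 SD of response in nonfluorescent compounds, cut at about 42% in these data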;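 also: stock transfer was 100 nL into about 11 µL; a reference agonist was the positive control; negative values mostly stem from fluorescent compounds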
FGF22 binding: binders of recombinant human FGF22 by thermal shift; Q9HCT0; SYPRO orange fluorescence; percent of sucrose octasulfate shift, DMSO zero; calls only at 9.99 µM; actives 1.5% (n = 340,000); AID 651658;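 active = melting point raised past a set limit in the mean and every replicate; three in four hits are not shown here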
HNF4A DNA FP: change in binding of human HNF4 alpha to DNA | HNF4a-FITC DNA binding, fluorescence polarization, 1 h | P41235 | actives 0.3% (n = 360,000) | AID 1224865 | activity change, % at 10 µM; in the data active = activity change above about 30%, passing the limit was not always enough;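 also: controls were the assay level and a saturating level of protein; the project sought stronger binding though the title names inhibitors; some compounds called inactive have numbers as strong as hits; positive values seem to mean higher polarization but the record does not say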
Target sequence (P41235 whole entry, looked up): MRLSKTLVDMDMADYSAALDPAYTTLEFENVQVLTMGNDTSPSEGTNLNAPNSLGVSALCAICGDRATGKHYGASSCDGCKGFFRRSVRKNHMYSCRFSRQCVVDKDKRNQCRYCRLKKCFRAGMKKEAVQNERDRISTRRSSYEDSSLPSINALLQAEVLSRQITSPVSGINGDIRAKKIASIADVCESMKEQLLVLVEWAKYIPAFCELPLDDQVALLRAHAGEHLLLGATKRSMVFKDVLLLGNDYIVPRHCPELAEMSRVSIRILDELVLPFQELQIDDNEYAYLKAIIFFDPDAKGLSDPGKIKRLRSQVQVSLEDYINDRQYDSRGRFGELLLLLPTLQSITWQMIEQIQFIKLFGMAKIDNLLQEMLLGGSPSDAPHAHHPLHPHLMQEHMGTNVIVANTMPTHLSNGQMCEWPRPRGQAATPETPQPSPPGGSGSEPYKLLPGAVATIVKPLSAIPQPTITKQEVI
Ecoli rRNA inh: inhibits bacterial ribosomal RNA function over humanized ribosomes. E. coli WT GFP vs humanized-ribosome RFP mutants, fluorescence, 24 h; stronger effect = lower value; DMSO median 0, no signal -100. GFP signal change (wild-type ribosome), % (concentration not given with the values). actives 1.6% (n = 350,000). AID 720706;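 active = significant combined selectivity score with lowered wild-type GFP, culture density cut under 30%, mutant RFP and density less affected; inactive = any of these conditions unmet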; also: one replicate is shown; some compounds called inactive have numbers as strong as hits
E coli growth: inhibitors of Escherichia coli growth; OD600, 23 h; stronger effect = lower value; OD600 absorbance (concentration not given with the values); actives 0.21% (n = 330,000); AID 1053175;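 active = OD600 absorbance below the run mean of sample wells minus 3.6 SD, in any replicate, cut at about 0.56 in these data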;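 also: stock transfer was 300 nL into about 60 µL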
UCH37 DUB inh: blocks the human deubiquitinase UCH37; Q9Y5K5; purified proteasome/UCH37, Ub-AMC cleavage fluorescence; inhibition, % (concentration not given with the values); actives 0.33% (n = 330,000); AID 588478;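 active = mean of two replicates above 20%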;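 also: 0% = compound-free wells with enzyme and 100% = wells lacking proteasome; stock transfer was 100 nL into about 20 µL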
Target sequence (Q9Y5K5 whole entry, looked up): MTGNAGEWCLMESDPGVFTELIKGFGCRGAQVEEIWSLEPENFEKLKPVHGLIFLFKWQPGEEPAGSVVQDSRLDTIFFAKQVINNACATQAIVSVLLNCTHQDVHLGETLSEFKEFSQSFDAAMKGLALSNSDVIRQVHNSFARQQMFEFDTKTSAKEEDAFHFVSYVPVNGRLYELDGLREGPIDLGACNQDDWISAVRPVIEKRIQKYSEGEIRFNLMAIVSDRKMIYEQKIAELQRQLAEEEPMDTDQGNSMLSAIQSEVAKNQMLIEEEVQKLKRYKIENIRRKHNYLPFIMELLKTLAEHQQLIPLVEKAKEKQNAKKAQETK
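Material: Human UCH37 enzyme supplied as purified proteasome complex | Schedule: 30 min preincubation with enzyme, 25 min cleavage at room temperature | Detection: AMC fluorescence 355/460 nm | Measure: % inhibition of Ub-AMC cleavage fluorescence | Controls: Wells without proteasome as full block, compound-free enzyme plus substrate as uninhibited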
Ecoli rRNA inh OD600: also measured in Ecoli rRNA inh; calls as there; OD600 change, %; measured here: OD600 growth;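 optical density of the mix in the first replicate; 0 = DMSO median and -100 = no signal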
Ecoli rRNA inh RFP: also measured in Ecoli rRNA inh; calls as there; RFP signal change, %; measured here: RFP humanized mutant strains;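 first replicate; 0 = DMSO median and -100 = no signal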
Active calls of the source: *; i = inactive; / = not tested or not shown; + = active, no number. Only part of the results is shown. The share of hits here may be higher or lower than overall.

SMILES	ALR inh	B2AR ag	FGF22 binding	HNF4A DNA FP	Ecoli rRNA inh	Ecoli rRNA inh OD600	Ecoli rRNA inh RFP	E coli growth	UCH37 DUB inh
CC1CN(C(=O)c2cccc(S(=O)(=O)Nc3ccccc3Cl)c2)CC(C)O1 (stereo unspecified)	0	0	i	-2.0	7	4	-1.0	0.66	2.8
CN(C(=O)c1ccncc1)c1nnc(-c2ccccn2)s1	-16	-17	/	0.1	/	/	/	0.71	-34
COC(=O)C1=C(C)N(c2ccc(Br)cc2)C(=O)/C1=C\c1ccco1	3	-3	/	0.8	/	/	/	/	1.5
COc1ccc(-c2cn[nH]c2N)c(OC)c1	99*	-3	/	1.0	/	/	/	0.72	1.4
COc1cccc2sc(Nc3nc4ccc(NC(C)=O)cc4s3)nc12	6	12	i	28	/	/	/	0.69	-217
O=C(COc1ccc(S(=O)(=O)N2CCOCC2)cc1)NCc1ccccn1	1	0	i	-0.7	11	14	2.2	0.72	1.6
COc1ccc(Cl)c(-c2cc(C(=O)Nc3ccc(F)cc3)[nH]n2)c1	/	/	i	0.6	-12	-6	-0.5	/	/
COc1cccc(-c2nc(-c3ccccc3)[nH]c(=O)c2C#N)c1	5	18	/	-2.1	/	/	/	0.7	1.0
CC(=O)c1nn(-c2ccccc2)cc1C(=O)c1ccc(Br)cc1	-13	-8	i	-3.1	0	2	-1.7	0.7	2.1
CN1/C(=C/C(=S)NC(=O)C2CCC2)C(C)(C)c2ccccc21	2	19	i	20	-27	-18	59	0.7	7.6
Cc1ccc(C(=O)NCCN2CCN(C(=O)c3ccc(C)c(C)c3)CC2)cc1C	/	1	i	-0.3	1	-2	1.1	0.69	-0.9
O=C(COC(=O)CCC(=O)c1cccs1)Nc1ccccc1C(F)(F)F	/	1	i	-1.5	0	3	4.7	0.71	0.2
Cc1cc(C)cc(NC(=O)c2ccc(NC3=NC4CS(=O)(=O)CC4S3)cc2)c1 (stereo unspecified)	-14	4	i	-0.9	4	14	3.7	0.67	1.2
N#Cc1cnc(SCC(=O)c2ccccc2)nc1N	/	4	/	3.6	/	/	/	0.69	0.4
CCN(C(=O)COC(=O)CNC(=O)c1ccc(C)cc1)c1c(N)n(Cc2ccccc2)c(=O)[nH]c1=O	-3	-6	i	-2.3	9	13	-2.4	0.68	1.2
CC1(C)OC(c2ccccc2)=C/C(=C/C=Nc2ccccc2)O1	-21	38	/	1.9	/	/	/	/	48*
N#CCSc1nnc(COc2ccc3ccccc3c2)o1	-16	-3	/	0.2	/	/	/	0.65	0.6
COCC(=O)NNS(=O)(=O)c1ccccc1[N+](=O)[O-]	-10	1	/	-1.8	/	/	/	0.72	4.0
Cc1[nH]c2ccccc2c1C(=O)C(=O)NC1CC1	-3	-2	i	2.2	1	3	-2.3	0.73	4.4
CCCn1nc(NC(C)=O)c2cc3cccc(C)c3nc21	-2	5	i	0.5	-7	11	3.3	0.64	-52

Some entries already given, reduced to E coli growth, B2AR ag and FGF22 binding.
SMILES	E coli growth	B2AR ag	FGF22 binding
CCCn1nc(NC(C)=O)c2cc3cccc(C)c3nc21	0.64	5	i
COCC(=O)NNS(=O)(=O)c1ccccc1[N+](=O)[O-]	0.72	1	/

The list goes on:
SMILES	ALR inh	B2AR ag	FGF22 binding	HNF4A DNA FP	Ecoli rRNA inh	Ecoli rRNA inh OD600	Ecoli rRNA inh RFP	E coli growth	UCH37 DUB inh
COc1cc(O)c(C(CCN2CCCCC2)c2ccc3c(c2)OCO3)c(OC)c1 (stereo unspecified)	/	-6	i	-6.9	4	1	0.9	0.65	0.6
Cc1nnc(SC(C)C(=O)Nc2ncc(Cl)cc2Cl)n1Cc1ccccc1 (stereo unspecified)	-4	-12	/	-2.9	/	/	/	0.68	0.5
CC(=O)c1cccc(NS(=O)(=O)c2ccc(N/C=C\C(=O)c3ccc(C)cc3)cc2)c1	-4	9	/	1.0	/	/	/	0.79	-5.9
CCOc1ncccc1C(=O)OCC(=O)Nc1ccc2c(c1)OCO2	-1	-3	/	3.0	/	/	/	0.66	-1.1
Clc1cccc(Cl)c1CO/N=C/c1c(-c2ccccc2)nc2n1CCS2	-20	-9	/	2.8	/	/	/	/	/
CCO[C@H]1OC(C(=O)O)=C[C@@H](C2CCCCC2)[C@@H]1CCCO	16	-2	i	-0.2	18	17	12	/	0.6
COc1ccc(N2CCN(C(=O)Cn3cnc4c(cnn4-c4ccccc4)c3=O)CC2)cc1	-16	-5	i	2.4	18	9	3.4	0.73	1.3
Cc1[nH]n(-c2ccc([N+](=O)[O-])cc2)c(=O)c1C=NCC1CCCO1 (stereo unspecified)	2	-3	i	2.6	0	9	0.7	0.61	4.3
CCOc1ccc(S(=O)(=O)Nc2ccccc2C(=O)N2CCOCC2)cc1	-6	1	i	0.9	4	16	-1.1	0.66	4.0
O=C(Nc1ccccc1)c1ccc(OC(=O)c2ccccc2)cc1	/	-1	i	-3.3	16	15	2.9	0.65	3.6
COc1ccc(N2C(=O)[C@@H]3[C@H](C2=O)[C@H](C(C)=O)N2c4ccccc4C=C[C@@H]32)cc1	-4	6	i	14	/	/	/	0.71	1.5
O=C1C=C(C#Cc2ccc(Oc3ccccc3)cc2)C[C@@H](c2ccc(F)cc2)C1	/	/	i	-2.0	0	1	-7.7	/	/
O=C(CSc1cc(Cl)ccc1Cl)NC1CCCC1	-11	-6	i	1.6	-2	-2	-1.3	0.66	3.5
COc1ccc(-c2c3c(nc4sc(C(=O)Nc5cc(C)on5)c(N)c24)CCC3)cc1	-3	4	/	7.1	/	/	/	0.66	-89
CC(=O)N1CCc2cc(S(=O)(=O)CCC(=O)NCCc3ccc(Cl)cc3)ccc21	-1	-12	i	-1.2	-1	-3	-3.3	0.72	0.0
COc1cccc(C(=S)N2CCOCC2)c1OS(=O)(=O)c1ccc(Cl)cc1	-3	3	i	-0.2	-15	-2	4.5	0.7	4.7
COc1ccc(NC(=O)c2cccc(NC(=O)c3ccccc3)c2)cc1	7	2	i	2.0	10	13	2.2	0.67	0.9
COc1ccc(OC)c(S(=O)(=O)NC2CC(=O)N(c3cccc(F)c3)C2)c1 (stereo unspecified)	-1	1	i	2.9	5	1	1.6	0.64	6.5
C#CCOc1ccc(OC)cc1C(c1c(C)[nH][nH]c1=O)c1c(C)[nH][nH]c1=O	1	-3	/	0.5	/	/	/	0.67	1.0
COc1ccc(-c2c(N)cnc(C(=O)O)c2C)c(OCc2ccccc2)c1OC	/	/	i	3.7	-1	-3	-8.2	/	/
CCOC(=O)C1=CCN(S(=O)(=O)c2ccccc2Cl)C1c1cccc(Br)c1 (stereo unspecified)	/	/	i	0.1	-13	-35	-5.7	/	/
COC(=O)Cn1c(N2CCCC2)nc2c1c(=O)n(C)c(=O)n2C	1	-7	i	-0.1	13	5	1.1	0.7	3.7
CN1CCN(C(=O)c2ccc(COc3ccc(C(C)(C)C)cc3)o2)CC1	1	-3	/	0.3	/	/	/	0.7	2.8
Cc1ccc2c(c1)/C(=C/c1ccccc1F)C(=O)N2	-2	3	i	-0.1	8	6	0.7	0.69	4.7
CCn1c(SCC(=O)O)nnc1-c1ccccc1OC	5	1	i	0.1	22	19	-1.6	0.65	1.9
Cc1ccc(NC(=O)CN(C)C(=O)c2cccnc2Nc2cccc(C(F)(F)F)c2)cc1	4	8	i	0.1	7	-7	-0.5	0.71	2.0
CCN1CCN(C(=O)C2CCC(=O)N(Cc3cccc(C(F)(F)F)c3)C2)CC1 (stereo unspecified)	5	-8	i	-2.2	14	14	-6.3	0.69	-0.2
O=C(c1ccco1)N1CCC(c2nc3c(nnn3Cc3ccccc3Cl)c(=O)[nH]2)CC1	1	-4	i	0.7	-1	-9	14	0.7	3.8
Cc1ccc2nc(SCC(=O)c3ccc4c(c3)NC(=O)CO4)[nH]c2c1	32	-1	i	7.1	-21*	-4.4*	8.3*	0.72	-1.0
COC(=O)c1ccc(NC(=O)C(=O)c2cccn2C)cc1	/	3	i	4.0	5	9	-1.8	0.72	9.3
CN(C(=O)Cn1nnc2ccccc2c1=O)C1CCCCC1	0	0	+	0.2	2	6	-0.8	0.63	1.8
O=C1CCC([N+](=O)[O-])C(c2ccccc2Br)N1 (stereo unspecified)	-8	4	i	-0.8	12	7	-0.5	0.67	1.1
C=CCn1c(SCC(=O)N2CCOCC2)nnc1C(C)NC(=O)c1ccccc1 (stereo unspecified)	-1	2	i	0.5	1	13	2.2	0.68	-0.3
CCCCCCCCC(=O)O	-11	/	/	0.0	/	/	/	0.78	4.3
COc1ccc(NC(=O)C2CCN(C(=O)c3cccs3)CC2)cc1	-7	-2	/	3.9	/	/	/	0.66	1.6
COC(=O)c1sc(-c2ccc(C(C)(C)C)cc2)cc1NC(=O)CCC(=O)O	0	7	i	-2.4	3	17	-0.7	/	/
COc1ccc2[nH]c(C)c(CCN3C(=O)C4C5C=CC(C5)C4C3=O)c2c1 (stereo unspecified)	96*	2	i	-0.7	4	8	0.1	0.76	2.5
O=C(/C=C/c1ccccc1Cl)c1cccnc1	15	3	/	-0.6	/	/	/	/	-2.5
COc1ccc(Cc2nc3ccc(C(=O)NC4CCOC4)cc3o2)cc1 (stereo unspecified)	-7	-8	i	-3.6	1	2	-2.2	0.65	3.5
O=[N+]([O-])c1ccccc1CNCCO	/	4	i	-0.4	2	9	-5.7	0.69	2.3
COc1cccc(-c2cc3nc(NCc4ccccc4OC)n(C)c(=O)c3s2)c1	/	/	i	4.5	4	17	-4.0	/	/
C/C(=N\NC(=O)c1cc(-c2cccc(OC(C)C)c2)nc2ccccc12)c1cccnc1	-2	-4	i	-1.0	-4	-7	-0.1	/	/
COc1ccc(C(c2nnnn2Cc2cccs2)N2CCC(C(N)=O)CC2)c(OC)c1 (stereo unspecified)	-7	4	/	2.0	/	/	/	0.74	3.9
CC1(C(=O)NS(=O)(=O)c2cccc(Cl)c2)CCN1C(=O)CCc1ccc(Cl)cc1Cl (stereo unspecified)	/	/	i	-2.3	-11	-20	-4.1	/	/
CC(=O)N(C)c1ccc(OCC(O)Cn2c(C)nc3ccccc32)cc1 (stereo unspecified)	-4	1	/	3.2	4	8	0.5	0.73	6.0
O=C(NC(=S)NCc1cccnc1)c1cc2ccccc2o1	3	-11	i	1.6	-27	-26	-2.1	0.63	-1.0
CCn1c(SCC(=O)Nc2ccc(F)cc2)nnc1-c1cnccn1	-23	-9	i	3.3	-4	6	-0.6	0.67	1.4
O=c1[nH]c(=O)n2ncnc2[nH]1	/	/	i	1.0	0	0	0.4	/	/
C[C@H]1CN([C@@H](C)CO)C(=O)c2cc(Br)cnc2O[C@@H]1CN(C)C(=O)NC1CCCCC1	/	/	i	-0.4	-2	2	-0.3	/	/
Cc1cc(F)ccc1S(=O)(=O)Nc1ccccc1C(=O)Nc1ccccc1N1CCOCC1	4	1	/	-0.5	/	/	/	0.7	-1.5

(cont.)
SMILES	ALR inh	B2AR ag	FGF22 binding	HNF4A DNA FP	Ecoli rRNA inh	Ecoli rRNA inh OD600	Ecoli rRNA inh RFP	E coli growth	UCH37 DUB inh
O=S(=O)(CCc1nc2ccccc2s1)c1ccc2ccccc2c1	-2	-7	/	-1.0	/	/	/	0.69	-1.0
C/C(=N\NC(=O)c1cccc(S(=O)(=O)N2CCCC2)c1)c1ccc(C)cc1	0	13	/	0.0	5	6	-1.1	/	/
CCOc1ccccc1NC(=O)Nc1cc(S(=O)(=O)N(C)C)ccc1C	-3	-1	i	-3.9	13	-1	0.2	0.68	6.1
COc1ccc(C(=O)Nc2ccccc2C(=O)N/N=C/c2ccncc2)cc1OC	-6	-6	i	-3.7	-2	-2	2.3	/	/
